Screening data as filed in PubChem.
Vif TR-FRET = inhibitors of Vif binding to APOBEC3G peptide, primary screen, biochemical, TR-FRET, GST-Vif 1-94, biotin-A3G peptide, dose response retest (AID 1117319); TR-FRET GST-Vif / biotin-A3G peptide binding; higher % means a stronger effect; test concentration not given here; strong numbers were not always called active; 0.57% of 260,000 active; one-dose inhibition, %; IC50 in µM for titrated hits;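 active = above the screen mean plus three standard deviations and confirmed in dose response; inconclusive = results disagree or hit not tested in dose response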;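 also: Vif residues 1-94 fused to GST binding biotinylated APOBEC3G peptide 110-148; 0% = full assay without inhibitor and 100% = GST in place of GST-Vif; retest series ran down from 100 µM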
Calb FLC = affects C. albicans growth with fluconazole; 0.57% of 300,000 active; C. albicans CaCi-2 (fluconazole-resistant clinical isolate) + fluconazole, Alamar Blue growth, 48 h; growth inhibition, % (no concentration beside the values); AID 1979;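 active = most replicates above 75%; inconclusive = exactly half above 75%; inactive = most below 75%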;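 also: all wells also contain fluconazole at 8 µg/ml as a sub-toxic cotreatment; 0% = median of DMSO wells and 100% = median of geldanamycin control wells; wells of about 8 µL received 7.5 nL stock; the first replicate is given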
Beta apoptosis = blocks beta cell apoptosis; INS-1E cytokine-induced death, ATP luminescence, 48 h; percent of positive-control rescue, neutral wells zero; protection from apoptosis, % (concentration not given with the values); 0.8% of 300,000 active; AID 435005;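 active = all replicates at 75% or more, or half of them and the mean; inconclusive = half reach 75% but not the mean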;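 also: 0% = cytokine-treated negative control wells and 100% = positive control rescue; higher means more ATP so stronger rescue from cytokine killing; wells of about 40 µL received 100 nL stock; the first replicate is given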
RanGTP-Impb inh = inhibitors of RanGTP-importin-beta interaction, primary screen, biochemical, FRET, CFP-Ran, YFP-importin-beta, homogeneous | cell-free CFP-Ran/YFP-importin-beta FRET ratio | inhibition, % (test concentration not listed) | 1.1% of 300,000 active | AID 2216;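 active = most replicates above 15%; inconclusive = exactly half above 15%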;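 also: 0% = DMSO wells and 100% = Ran loaded with GDP instead of GTP; wells of about 40 µL received 100 nL stock; the first replicate is given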
AF4-AF9 inh = inhibitors of human MLL-AF4/AF9 interaction; AlphaScreen, biotin-AF4 peptide binding to FLAG-AF9; inhibition, % at 10 µM; 0.47% of 350,000 active;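 active = every replicate reaching a set inhibition limit, whatever the replicate mean, cut at about 25% in these data; inconclusive = mean inhibition reaches that limit but some replicates miss it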;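 also: 0% = plate neutral control median and 100% = total signal loss; the record names both 10 and 1 µM as test concentration; the first replicate is given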
Target sequence (P42568 whole entry, looked up): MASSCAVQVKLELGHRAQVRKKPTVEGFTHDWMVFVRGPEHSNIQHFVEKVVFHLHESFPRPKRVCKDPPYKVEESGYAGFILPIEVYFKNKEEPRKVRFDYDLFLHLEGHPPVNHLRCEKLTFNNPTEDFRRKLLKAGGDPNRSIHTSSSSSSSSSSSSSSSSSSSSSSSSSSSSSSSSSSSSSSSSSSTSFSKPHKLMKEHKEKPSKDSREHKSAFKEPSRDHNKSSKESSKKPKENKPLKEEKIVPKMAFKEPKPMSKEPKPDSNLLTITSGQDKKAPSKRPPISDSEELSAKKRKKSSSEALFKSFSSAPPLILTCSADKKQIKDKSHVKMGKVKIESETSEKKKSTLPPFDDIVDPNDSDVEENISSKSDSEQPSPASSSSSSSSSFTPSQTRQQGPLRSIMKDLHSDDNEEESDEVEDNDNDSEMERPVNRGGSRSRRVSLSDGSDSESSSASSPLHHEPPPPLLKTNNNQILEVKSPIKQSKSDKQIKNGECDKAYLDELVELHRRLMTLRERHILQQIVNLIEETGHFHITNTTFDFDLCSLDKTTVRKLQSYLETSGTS
LANA-H2B inh = blocks KSHV LANA binding to histone H2A/H2B; 0.6% of 320,000 active; AID 2629; cell-free LANA-H2A/H2B peptide, fluorescence polarization; inhibition, % (concentration not given with the values); Q9QR71; in the data active = inhibition mostly above about 10%, no sharp cut-off; inactive = mostly below about 6.7%;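 also: stock transfer was 7.5 nL into about 10 µL; 0% = median of vehicle wells and 100% = median of positive control wells; one replicate is shown; the record names a cut of 25% in any replicate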
T cruzi repl = T. cruzi replication inhibition. T. cruzi beta-gal in NIH3T3, luminescence, 90 h. inhibition, % (test concentration not listed). 1.4% of 300,000 active. AID 1885;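 active = mean inhibition across valid replicates above about 55%, limit read from the data; inconclusive = mean below that limit but half or more replicates reach it; inactive = mean below it, under half of replicates reach it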;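 also: signal also drops with host cell toxicity which is not excluded here; 0% = plate median of DMSO wells and 100% = zero luminescence signal; higher percent means less beta-gal luminescence so fewer parasites; stock transfer was 50 nL into about 50 µL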
Bfl-1 A1 inh = inhibitors of the anti-apoptotic protein A1, read as caspase activation; 0.066% of 330,000 active; caspase activation, % (test concentration not listed); MEF A1-2A-BIM cells, Caspase-Glo 3/7 luminescence, 3 h; percent of clofoctol response, vehicle zero;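 active = over half of replicate activation scores above 10%, or exactly half above 10 with the replicate mean above 10; inconclusive = replicate mean below 10 yet half the replicates above 10; inactive = over half of replicates below 10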;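 also: wells of about 30 µL received 50 nL stock; many hits fall short of the cut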
* marks the source's active call; other numbers are inactive results; ? = inconclusive; · = not tested or not shown.

The line under a structure holds: T cruzi repl, Calb FLC, Vif TR-FRET, Bfl-1 A1 inh, RanGTP-Impb inh, Beta apoptosis, AF4-AF9 inh, LANA-H2B inh
Cc1cccc(NC(=O)COc2cccc3c2CCN(C)C3=O)c1C
    11, -3, -5%, -0.3, -4.6, 1, 0.6, 1.7
Oc1ccc(C2CNCc3sccc32)cc1O (stereo not drawn)
    ·, ·, ·, -0.1, ·, 0, 2.0, 3.0
COc1ccc(CN2CCN(Cc3c[nH]c4ccccc34)CC2CCO)cc1C (stereo not drawn)
    1, 3, ·, ?, -0.8, 1, 9.6, -5.1
O=C1CN(C(=O)c2ccc(F)cc2)c2ccccc2N1
    -11, 6, ·, -0.1, -0.1, ·, -2.0, -1.1
Cc1ccc(S(=O)(=O)Nc2ccc(N3CCOCC3)cc2)cc1
    6, 9, 8%, 0.2, -2.0, ·, ·, 2.4
O=[N+]([O-])c1cccc(-c2nnc(C34CC5CC(CC(C5)C3)C4)o2)c1
    9, -19, 7%, 0.3, -3.4, -6, ·, 2.4
CO/N=C/c1ccc(Sc2ccccc2N)c([N+](=O)[O-])c1
    -2, -5, 2%, ?, ?, 1, ·, -3.4
CCCCOC(=O)N1CCOCCOCCN(C(=O)OCCCC)CCOCCOCC1
    2, 0, -2%, 0.5, 4.5, 1, ·, 2.8
C#CCOCCOCCOCCNc1nc(N2CCN(C(=O)[C@H]([C@@H](C)CC)n3cc(CCCCN)nn3)CC2)nc(N2CCN(C(=O)[C@H](C)n3cc(CCCN=C(N)N)nn3)CC2)n1
    ·, ·, ·, -0.5, ·, 0, 15, -1.8
CC1(c2nnc(Cc3ccccc3)o2)CC(c2cccnc2)=NO1 (stereo not drawn)
    -9, -8, ·, 0.6, 3.6, -7, -2.3, 0.9
O=C(NC1CCCCC1)C(c1ccco1)N(C(=O)c1csnn1)c1cccc(F)c1 (stereo not drawn)
    0, 10, 2%, 0.3, -0.1, -2, -0.2, -4.7
COC(=O)C1=C(C)N(C)C(=O)NC1c1cc(Cl)cc(Cl)c1OC (stereo not drawn)
    ·, 4, 6%, -0.7, 8.2, 2, ·, -3.8
C[C@H](NC(=O)c1cccc([N+](=O)[O-])c1)C(=O)OCC(=O)c1ccccc1Br
    ·, ·, ·, -0.4, ·, -1, -8.6, -0.1
Cc1cccc(OCC(=O)NCCNC(=O)c2ccncc2)c1
    10, 0, -5%, 0.4, 0.7, -1, -31, -2.2
CC(NC(=O)c1cccs1)C(c1cccs1)N1CCN(Cc2ccccc2)CC1 (stereo not drawn)
    -2, 56, 74%, 0.3, -0.7, ·, ·, 4.3
COc1cc(CNCCCCO)ccc1OCc1ccccc1F
    13, -9, ?, -1.6, -0.6, 7, -2.7, 14
c1coc(-c2cc(C3CCNCC3)[nH]n2)c1
    4, -3, -8%, 0.5, 1.9, -4, 5.8, -0.5
COC(=O)C1=C(CN2CCc3ccccc32)NC(=O)NC1c1cc(C)ccc1C (stereo not drawn)
    13, 5, 15%, 1.4, -0.7, 1, ·, -3.8
CC(=O)Nc1nc2ccccc2[nH]1
    -10, -14, -3%, -0.1, 0.7, 0, -0.2, 0.2
Cc1ccc(NC(=O)CCSc2nnc3ccccn23)cc1
    -7, 2, -3%, -0.3, 0.1, 0, ·, -1.1
COc1ccc(-c2oc3ccc(N4CCOCC4)cc3c2C#CC2(O)CCCCC2)cc1
    21, 14, ·, 0.4, 0.3, ·, 5.3, -0.1
CC(C)c1nnc(SCC(=O)N2CCc3ccccc32)n1N
    -7, 2, 2%, -0.3, -2.1, -8, -11, 0.9
N#CCC(=O)N/N=C/c1ccccc1Cl
    -13, 23, -4%, 1.0, 1.8, -7, -1.8, 0.6
COc1ccc(N2CCN(C(=O)CCc3ccc(S(=O)(=O)NCC(C)C)cc3)CC2)cc1
    -24, 16, 5%, 1.0, 3.5, -2, ·, 4.6
COc1ccccc1Nc1ncnc2c1cnn2-c1cccc(C)c1
    2, -22, ?, 0.9, -3.2, ·, ·, -3.1
CC(C)OCCCNC(=O)Nc1cccc2ccccc12
    -8, -11, ·, 0.4, 2.4, 3, -0.4, 1.7
O=C(N/C(=C/c1cccc([N+](=O)[O-])c1)C(=O)N1CCCCCC1)c1cccs1
    2, 3, 22%, -0.1, ?, -4, -3.2, -0.3
Cc1cccc(/N=C/c2ccccn2)n1
    -15, 1, ·, 0.8, 5.6, -1, 0.3, -2.9
CCCCOc1ccc(C(=O)Oc2cc(C)[nH]c(=O)c2[N+](=O)[O-])cc1
    -5, 12, -2%, 0.2, -2.7, -3, -1.9, -1.9
COc1cc2c(cc1OC)CN(C(=S)Nc1ccccc1Cl)CC2
    11, -9, 2%, 0.1, 0.3, -1, 0.9, 4.3

Continuation:
The line under a structure holds: T cruzi repl, Calb FLC, Vif TR-FRET, Bfl-1 A1 inh, RanGTP-Impb inh, Beta apoptosis, AF4-AF9 inh, LANA-H2B inh
Cc1cc(C(=O)NP(=O)(N2CCOCC2)N2CCOCC2)c(C)n1-c1ccc(Br)cc1
    5, -3, 4%, 0.1, 4.9, -1, 2.4, -0.1
COc1cc2c(cc1OC)CC(=O)NC=C2
    -9, 11, ·, -1.9, 6.8, -2, 1.6, ·
COC(=O)c1cc(CNC(=O)c2cccc(Cl)c2)ccc1OC
    -3, -7, 30%, -0.2, 0.1, -1, -2.5, 3.3
CCC1C(=NO)C(CC)C(c2ccccc2)NC1c1ccccc1 (stereo not drawn)
    48, -4, ·, 1.4, ?, 25, -2.3, -1.8
COc1ccc(CNC(=O)C2CCCN(S(=O)(=O)c3ccc(F)cc3)C2)cc1 (stereo not drawn)
    4, -3, ·, 0.1, 3.7, 0, -3.9, 1.0
O=C(CCN1CCN(Cc2ccccc2)CC1)Nc1ccccc1Cl
    19, 4, -10%, 1.3, 6.7, 1, -1.2, -2.8
O=[n+]1c2c(n([O-])c3cc(Cl)ccc31)CCCC2
    5, 17, 9.8µM*, -1.1, 3.5, ·, ·, -2.0
CCOc1ccc(NC(=O)CC2C(=O)N(c3ccc(OC)c(Cl)c3)C(=S)N2C2CC2)cc1 (stereo not drawn)
    27, -1, ·, 0.7, 4.5, -5, -1.2, 0.1
CN(C)Cc1c(O)c(Cl)cc2c3c(c(=O)oc12)CCCC3
    -25, -4, 12%, 0.7, 43*, -4, ·, 6.6
CN(C)S(=O)(=O)c1ccc(N2CCCC2)c(C(=O)NNC(=O)c2ccc(F)cc2)c1
    ·, ·, -4%, -0.1, ·, -2, -2.9, ·
CC(C)N(Cc1nc(-c2ccccc2)no1)C(=O)COc1ccccc1
    10, 8, 9%, ·, -1.0, -7, 0.2, 0.0
CC(C)c1ccc(-c2nc(N3CCOCC3)[nH]c(=O)c2C#N)cc1
    -3, -6, 23%, -0.5, -4.5, 6, ·, -13
Cn1c(=NC(=O)c2cccc([N+](=O)[O-])c2)sc2ccccc21
    -10, 11, 2%, -5.7, -3.3, 7, -2.0, 1.6
O=C(CCSCc1ccccc1F)NCc1ccc(F)cc1
    3, 0, -9%, 0.3, -1.7, -7, -2.9, 0.3
CCCN1C(=O)/C(=C/c2ccc(C)s2)NC1=S
    7, 29, 1%, 0.1, ?, -8, ·, -0.5
Cc1cccc(NC(=O)CN2NS(=O)(=O)c3ccccc3C2=O)c1
    -6, -10, 3%, 0.2, 2.4, -5, ·, -0.8
O=C(NC(Cc1ccccc1)C(=O)NC1CC1)OCc1ccccc1 (stereo not drawn)
    -15, -12, 5%, 0.5, 6.6, -4, -1.3, -0.6
COCCNc1oc(-c2ccco2)nc1S(=O)(=O)c1ccccc1
    0, 1, 11%, 0.1, -3.4, ·, ·, -4.5
O=S(=O)(c1ccc(Cl)cc1)N1CCC2(CC1)OCCO2
    -16, 1, ·, 1.1, 1.2, -4, 0.2, 0.1
Cc1ccc(-n2nnnc2SCC(=O)NNC(=O)c2ccc([N+](=O)[O-])cc2)cc1
    3, 2, 0%, 2.2, ?, -1, -1.1, 7.4
COc1ccc(N(CC(=O)N2CCCCC2)S(=O)(=O)c2ccccc2)c(OC)c1
    -14, 0, 17%, -0.2, 1.1, -7, 1.7, 1.6
Cc1ccc(C(=O)OCC(=O)NCC2COc3ccccc3O2)cc1 (stereo not drawn)
    ·, ·, 0%, 0.0, ·, 0, -0.4, -1.3
Clc1ccc(OCCN2CCCCC2)c(Cl)c1
    23, -12, -4%, 0.5, -1.5, 3, ·, 0.7
CN(Cc1ccc(OCC(O)CN2CCCCC2)cc1)Cc1ccnc2ccccc12 (stereo not drawn)
    38, 4, 5%, ·, -4.2, ·, 6.5, ·
O=C(CN(CC1CCCO1)C(=O)CNS(=O)(=O)c1ccc(Cl)cc1)NCc1ccccc1 (stereo not drawn)
    13, 5, 1%, -0.4, 2.5, -5, -0.5, -3.3
Cc1ccc(NC(=O)COC(=O)c2ccccc2Nc2ccccc2)cc1
    -8, -6, -8%, 0.4, -1.2, 2, -8.6, -1.4
COc1ccc(N(C(=O)Cn2nnc(-c3ccc(C)o3)n2)C(C(=O)NC2CCCC2)c2ccncc2)cc1 (stereo not drawn)
    4, 27, 3%, 1.6, -4.3, -7, -6.8, 3.1
Cn1cccc1Cc1nnc(SCC(=O)Nc2ccc3c(c2)OCO3)n1-c1ccc(F)cc1
    6, -6, ?, 0.2, -6.8, -6, 11, 1.8
Cc1ccc(S(=O)(=O)Nc2cccc(Cl)c2)cc1NC(=O)C1CC1
    ·, ·, ·, 0.1, ·, -2, 0.7, -2.6
CCN1C(=O)C(O)(CC(=O)c2cccc(-n3cccc3)c2)c2ccccc21 (stereo not drawn)
    9, 11, 9%, 0.1, 4.3, -4, 14, -3.8

Next entries:
The line under a structure holds: T cruzi repl, Calb FLC, Vif TR-FRET, Bfl-1 A1 inh, RanGTP-Impb inh, Beta apoptosis, AF4-AF9 inh, LANA-H2B inh
Cc1cc(C)c2nc(N3CCC(C(=O)NCc4ccccn4)CC3)sc2c1
    17, 9, 14%, 1.4, 1.6, -4, -3.2, 1.5
CCOC(=O)c1ccccc1NC(=O)CC(C)CC(=O)O (stereo not drawn)
    -5, 2, 4%, -0.1, 3.9, -2, ·, 0.4
COc1cccc(-n2c(=O)c3ccccc3n3c(=S)[nH]nc23)c1
    1, 0, -5%, -1.0, 3.2, 5, -3.6, -1.4
COC(=O)C1=C(N)Oc2cc(C)[nH]c(=O)c2C1c1ccncc1 (stereo not drawn)
    -9, -2, 6%, 0.2, -1.8, 0, ·, 5.3
O=C(C[C@H]1C/C=C\CC[C@H](Cc2ccc(F)cc2)C(=O)OCCNC1=O)NCCO
    ·, ·, ·, 0.4, ·, -9, 0.3, 6.2
Oc1ccc(Cl)cc1CNCc1ccc(F)cc1
    ·, ·, ·, 1.2, ·, -4, 1.3, 6.3

Hits appear at their usual frequency. Share with any hit: about 4.3%.
